TRPV1 PAM: potentiators of human vanilloid receptor 1 (TRPV1). Q8NER1. TRPV1-expressing cells, Fluo-8 calcium influx, capsaicin EC20 potentiation; host cell line not named in the record; control for the full effect not named in the record. potentiation, % at 8.33 µM. 320,000 compounds, 0.02% hits; active means potentiation above 80%; inconclusive means 30% to 80%; inactive means below 30%; further: 0% is about no effect
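Cells expressing TRPV1 were dye-loaded with Fluo-8 and read kinetically: 10 s baseline, 3 min after compound (agonist portion), then 2 min after EC20 capsaicin (allosteric enhancer portion). Calcium-bound dye fluorescence at 480/520 nm.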
gsp agonist: activates gsp, the McCune-Albright syndrome mutation | gsp mutant cells, cAMP HTRF, 30 min; control for the full effect not named in the record | Potency, µM (titrated, usually from 76.9 µM), inactives show at the highest dose activation (cAMP increase), hits mostly activators | 340,000 compounds, 0.13% hits; active = well fitted activation curve with a large enough effect; inconclusive = small, poorly fitted or top-dose-only effect, or another doubt; inactive = no such curve, though single readings can be large or run the other way; cell line not stated here;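 further: phosphodiesterase inhibitor Ro 20-1724 added with compounds to block cAMP breakdown; potency means the concentration at half of the fitted maximal effect; nearly all actives have a fitted effect of over 60% in size; about a fifth of the inactives were tested at one dose only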
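Cells in DMEM/10% FBS with G418 were pretreated with compounds in DMSO plus […] (300 uM stock) for 30 min at 37C. cAMP was measured by HTRF (cAMP-d2 plus anti-cAMP antibody-K) after 30 min at room temperature.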
gsp antag: gsp mutant antagonism | gsp-mutant cells, cAMP HTRF, 30 min; control for the full effect not named in the record | Potency, µM (top dose mostly 76.9 µM), without a hit: top-dose activity change, negative = inhibition, hits mostly inhibitors | 340,000 compounds, 0.4% hits; active = falling curve of any shape with a large fitted effect; inconclusive = falling curve, mostly with a smaller effect; inactive = flat or rising curve; cell line not stated here;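 further: intracellular cAMP measured with PDE inhibitor Ro 20-1724 present during compound exposure; potency means the concentration at half of the fitted maximal effect; on the % scale 0 is the no-effect control and ±100 the full control effect; nearly all actives have a fitted effect of over 65% in size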
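HTRF cAMP read-out (cAMP-d2 plus anti-cAMP antibody-K in lysis buffer, 30 min RT). Before lysis, cells are exposed to compounds with […] for 30 min at 37C in DPBS containing Ca/Mg, BSA and Tween 20.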
Menin-MLL FL inh: menin-MLL binding inhibition, fluorescein peptide. 290,000 tested, under 10 active. FP activity change, % at 61.4 µM. AID 1766. Fluorescence polarization, fluorescein-MLL peptide displacement from menin; inconclusive = falling polarisation curve, or a change in total fluorescence; inactive = total fluorescence flat and polarisation flat or rising; no compound was filed as active; the % refers to the polarisation; negative = inhibition;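 further: % of control where 0% means no effect; inhibitors lower the polarisation; unlabelled MLL peptide was the positive control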
D2 potentiator: human D2 receptor positive allosteric modulation; P14416; potentiation, % (no concentration beside the values); 360,000 compounds, 0.23% hits; DiscoveRx D2 beta-arrestin cells, luminescence, 90 min; 100% = 57 uM dopamine signal; active = potentiation of 50% or more; inconclusive = 30% to 50%; inactive = 30% or less;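 further: compound concentration not given in the record; tested on top of an EC20 dose of dopamine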
Target sequence (P14416 whole entry, looked up): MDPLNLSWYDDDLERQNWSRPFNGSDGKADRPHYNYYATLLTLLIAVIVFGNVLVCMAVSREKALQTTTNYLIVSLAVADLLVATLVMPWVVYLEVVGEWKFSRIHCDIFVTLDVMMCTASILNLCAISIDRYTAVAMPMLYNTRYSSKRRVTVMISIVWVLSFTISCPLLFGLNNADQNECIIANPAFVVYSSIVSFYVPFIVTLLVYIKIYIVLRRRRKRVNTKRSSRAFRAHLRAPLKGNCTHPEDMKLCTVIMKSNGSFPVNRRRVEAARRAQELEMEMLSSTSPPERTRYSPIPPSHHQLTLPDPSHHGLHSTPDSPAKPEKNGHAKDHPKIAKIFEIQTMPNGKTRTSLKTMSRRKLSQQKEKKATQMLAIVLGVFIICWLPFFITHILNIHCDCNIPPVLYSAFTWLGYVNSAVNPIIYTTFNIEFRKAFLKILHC
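D2 cells co-treated with compound plus 50 nM dopamine (EC20) for 90 min at 37 deg C to detect potentiation. Beta-arrestin recruitment was read as enzyme-fragment luminescence after 1 h at ambient temperature. Full response was set by 57 uM dopamine.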
Sfp PPTase inh: Sfp phosphopantetheinyl transferase inhibition; 310,000 compounds, 3.5% hits; Biochemical Sfp PPTase activity, qHTS; AID 1490; Potency, µM, for inactives: max response, negative = inhibition, most hits filed as inhibitors; Q9F4F7; active means well fitted inhibition curve with a large enough effect; inconclusive means small, poorly fitted or top-dose-only effect, or another doubt; inactive means no such curve, though single readings can be large or run the other way;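 further: the enzyme is Sfp with the accession as filed and its product quenches rhodamine fluorescence; potency means the concentration at half of the fitted maximal effect; 0% = enzyme reaction without inhibitor and -100% = no enzyme wells; top concentration of the series not given in the record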
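Buffer: 50 mM Hepes-Na pH 7.6, 10 mM MgCl2, 0.01% Nonidet P-40, 0.01% BSA. Enzyme 15 nM, pre-exposed to compound 15 min; substrates then added and fluorescence change tracked over 30 min.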
ClpP mod: qHTS Assay for Activators of ClpP | 340,000 compounds, 1.9% hits | ATP-dependent Clp protease proteolytic subunit (Bacillus subtilis (strain 168)), P80244 | Potency, µM (top dose mostly 57.5 µM), inactives show top-dose activity change, negative = active | purified B. subtilis ClpP, FRET peptide cleavage, 20 min | AID 651965, 2013; active = well fitted falling curve with a large enough effect; inconclusive = small, poorly fitted or top-dose-only effect; inactive = no such curve, though single readings can be large or run the other way; further: potency means the concentration at half of the fitted maximal effect; the source files actives as falling curves though it sought activators and does not explain the sign; nearly all actives have a fitted effect of over 65% in size; many hits overshoot -100%
Target sequence (P80244 whole entry, looked up): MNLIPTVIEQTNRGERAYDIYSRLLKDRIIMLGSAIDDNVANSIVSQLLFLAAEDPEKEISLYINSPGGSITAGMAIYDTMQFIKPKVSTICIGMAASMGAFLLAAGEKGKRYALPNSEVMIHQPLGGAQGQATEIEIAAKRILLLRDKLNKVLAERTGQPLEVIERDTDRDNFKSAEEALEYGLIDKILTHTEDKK
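FRET quenching reversal measured ClpP activation: 10 microg/mL B. subtilis ClpP at pH 8 with the FRET-FV decapeptide, read at 430 nm after 320 nm excitation. The 20-min minus 0-min signal was scaled between DMSO/no-enzyme wells and ADEP (5.8 microM final).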
An asterisk follows results filed as active; ? = inconclusive; · = no result given; [ ] = another dose, or the depositor's remark.

Compound | TRPV1 PAM | gsp agonist | gsp antag | Menin-MLL FL inh | D2 potentiator | Sfp PPTase inh | ClpP mod
COc1ccc(OC)c(Nc2nc3ccccc3n3cnnc23)c1 | 11.3 | 12.4% | ? | 8.4 | 10.6 | -7.1% | -7.4%
Cn1c(NCc2ccccc2)nc2c1c(=O)n(Cc1ccc(Br)cc1)c(=O)n2C | 6.7 | ? | 3.1% | -0.9 | -4.8 | 3.6% | -0.8%
COc1ccc(S(=O)(=O)NN=C2CCCCC2)cc1 | 13.9 | 11.0% | -2.3% | 5.8 | -8.1 | -3.3% | 0.2%
COc1ccc(NC(=O)CSc2nnc(N)s2)cc1S(=O)(=O)N1CCCCC1 | · | -47.6%[inhibitor] | 8.0% | · | -0.5 | · | -0.5%
Cc1nc(C)c(C(=O)N/N=C/c2c[nH]c3ccccc23)s1 | 18.5 | -0.6%[15.4 µM] | -1.6% | -2.6 | -43.0 | 6.4% | 2.0%
O=C(Nc1cc(Cl)c(O)c(Cl)c1)C1CCCO1 (stereo not given) | 5.4 | -13.8% | -4.4% | 2.4 | -11.1 | 2.7% | -2.0%
C(=C\c1sc(Nc2ccccc2)n[n+]1-c1ccccc1)/c1ccccc1 | · | 5.0% | -9.9% | · | -14.0 | · | 1.8%
COCCCNC(=O)c1ccc(Cn2c(=O)c3ccccc3n(CC(=O)NCCc3ccc(OC)c(OC)c3)c2=O)cc1 | 18.1 | -21.8%[15.4 µM] | -9.8% | -1.9 | -5.7 | 5.9% | ·
COc1ccc(CNC(=O)c2ccc(Cl)c(NC3=NC4CS(=O)(=O)CC4S3)c2)cc1 (stereo not given) | 28.8 | -73.0%[inhibitor] | -7.0% | -0.5 | -5.1 | 8.6% | -3.6%
Nc1c(-c2cccs2)cnn1-c1nc(-c2ccc(F)cc2)cs1 | -16.6 | -52.3%[inhibitor] | 10.7% | 3.3 | 2.0 | 11.5% | -2.0%
CC(=O)c1ccc(NC(=O)COC(=O)CCC(=O)c2cccs2)cc1 | -7.0 | 6.0% | 14.6% | 0.3 | -0.9 | 6.3% | 0.7%
COc1ccccc1NC(=O)CSc1ccc(-c2ccco2)nn1 | -2.2 | 5.3%[15.4 µM] | 3.1% | · | 22.5 | 44.7µM* | -5.6%
O=C(COC(=O)/C=C/c1ccccc1)NC1CCCCC1 | -2.3 | 2.2% | 7.8% | · | -12.5 | · | 1.7%
CCS(=O)(=O)Nc1ccc(C(=O)CC2(O)C(=O)Nc3ccccc32)cc1 (stereo not given) | 17.2 | 0.1% | 10.9% | -2.5 | -6.7 | 10.8% | -29.2%
CC1CCN(C(=O)Cn2cc(C(=O)C3CC3)c3ccccc32)CC1 | -23.7 | -34.4%[inhibitor] | 5.2% | 3.4 | -11.4 | -3.5% | -2.9%
COc1ccc(C(=O)N2CCN(c3ccc(F)cc3)CC2)cc1S(=O)(=O)NC1CC1 | -2.2 | 12.9% | -3.2% | · | -2.9 | · | 0.9%
Cc1ccc(S(=O)(=O)N2CCN(C(=O)COC(=O)/C=C/c3cccc([N+](=O)[O-])c3)CC2)c(C)c1 | · | 4.1% | 2.8% | · | -6.5 | · | -1.6%
Fc1ccccc1NC(=S)Nc1cccnc1 | 0.1 | -5.8%[15.4 µM] | 5.3% | -1.5 | -9.4 | -0.6% | ·
Cc1ccc(NC(=O)CSc2ccc(Br)cc2)cc1S(=O)(=O)N1CCOCC1 | 13.4 | -15.0%[15.4 µM] | -11.5% | · | -18.9 | · | ·
O=C(COC(=O)c1n[nH]c(=O)c2ccccc12)c1ccc(Br)cc1 | 4.1 | -7.1%[15.4 µM] | 3.6% | -0.8 | -5.9 | -9.2% | ·
COc1ccc(Cl)cc1NC(=O)c1cccnc1 | -0.1 | -38.2%[inhibitor] | -6.3% | 0.2 | -13.8 | 18.7% | -1.3%
COc1ccccc1NC(=O)C1=C(C)NC2=C(C(=O)CC(c3ccc(OC)c(OC)c3)C2)C1c1coc2ccccc2c1=O (stereo not given) | -4.0 | 10.6% | 7.4% | 8.1 | 6.3 | 6.0% | 0.5%
O=C(CCC1CCCCC1)NNC(=O)c1cnccn1 | 2.7 | -7.7% | 10.0% | · | -20.4 | 24.1% | -1.0%
COc1ccc(CN(CCO)CCO)cc1[N+](=O)[O-] | 6.8 | -4.8% | 10.8% | 1.4 | 3.0 | 28.1% | 0.7%
Cc1cccc(-n2c(C)nc3c(cnn3-c3ccc(F)cc3)c2=O)c1 | -40.5 | 3.3% | -14.2% | 2.1 | -8.8 | -10.2% | 0.9%
Nc1nc(CSc2nnnn2-c2ccccc2)nc(N2CCCc3ccccc32)n1 | -2.5 | 14.8% | 0.8% | -1.7 | -11.1 | -15.6% | -0.9%
Cc1c(Cl)cccc1NC(=S)N1CCN(c2ccc([N+](=O)[O-])cn2)CC1 | -2.1 | -21.2% | 10.2% | 2.0 | 0.2 | 10.2% | 1.6%
O=C(N/N=C/c1ccc(OC(=O)c2ccc(Br)cc2)cc1)c1ccncc1 | 8.1 | 20.5%[15.4 µM] | -1.1% | -1.1 | -1.4 | 8.7% | ·
Cc1ccc(/C=N/OC(=O)c2nn(C)cc2Cl)cc1 | -12.7 | 10.3%[15.4 µM] | 3.0% | -2.2 | -7.0 | 14.6% | ·
COc1ccc(-c2c(-c3ccccc3OC)sc3ccccc23)cc1 | 3.6 | -4.0% | -15.6% | 8.3 | -5.4 | -11.9% | 4.2%
CCOC(=O)c1ccc(S(=O)(=O)N2CCC(N3CCCCCC3)CC2)cc1 | · | -53.5%[inhibitor] | · | · | -2.1 | · | 0.3%
Cc1cc(C)c(NC(=O)C(C)(C)C)c(Cl)c1 | -2.8 | -19.4% | 3.9% | 0.8 | -10.0 | 25.4% | 0.7%
COc1cc(C(=O)NCCOc2ccccc2)cc(OC)c1OC | -38.9 | -22.5%[15.4 µM] | 10.0% | 1.4 | -0.4 | 20.2% | -7.3%
Cc1ccc(S(=O)(=O)N2CCOC2C(Cl)(Cl)Cl)cc1 (stereo not given) | -9.6 | 8.7% | -8.4% | 2.2 | -4.9 | 3.1% | 0.0%
Cc1noc(C)c1C(=O)OC(C)C(=O)c1c[nH]c2ccccc12 (stereo not given) | · | 4.9% | · | · | -15.4 | · | -1.0%
CCc1noc(C)c1C(=O)Nc1nc(-c2ccccc2)cs1 | 12.6 | 23.9%[15.4 µM] | -28.4% | · | -4.3 | · | ·
O=C1CSC(=Nc2ccccc2Cl)N1 | 16.8 | -7.6% | -3.7% | -2.4 | -8.8 | -2.2% | 0.0%
O=C(O)c1cc2sccc2s1 | -9.1 | ? | 33.0%[activator] | -1.8 | -16.6 | 10.3% | -0.2%
Cc1cccc2cc(/C=C3\N=C(c4ccccc4)OC3=O)c(N3CCOCC3)nc12 | 0.4 | ? | 2.3% | -0.7 | -5.8 | 12.8% | 0.0%
CCN(CC)S(=O)(=O)c1ccc(N2CCOCC2)c(NC(=O)c2ccc(OC)c([N+](=O)[O-])c2)c1 | -16.2 | ? | -8.8% | 2.2 | 4.9 | 11.9% | 4.2%
COc1ccccc1-c1nnc(SCc2nc3ccccc3[nH]2)n1C | -7.9 | 6.8% | 2.9% | 0.5 | -30.5 | 16.8% | -15.5%
COC(=O)c1ccc(CNC(=O)COC(=O)/C=C/c2cccc(OC)c2)cc1 | · | -0.9% | · | · | -9.8 | · | 3.5%
COc1ccc(NC(=O)Cn2c(=O)oc3cc(S(=O)(=O)N4CCCC4)ccc32)c(OC)c1 | 1.2 | -9.8% | -6.1% | -5.2 | -6.0 | 5.9% | -2.1%
COc1ccc(/C=C2\SC(=Nc3ccccc3Cl)NC2=O)c(OC)c1 | · | -30.5% | · | · | -26.9 | · | 2.3%
CCOc1cccc(OCCCCn2cnc3ccccc3c2=O)c1 | -1.9 | 9.4%[15.4 µM] | 8.4% | 0.5 | -1.3 | 10.8% | 0.6%
CCc1c(C(=O)NNC(=S)NC2CCCCC2)csc1C | -16.5 | 13.1% | -2.4% | -1.2 | -11.8 | 16.8% | ·
C[C@H](CO)N1C[C@H](C)[C@@H](CN(C)Cc2cccc(C(=O)O)c2)Oc2cc(Br)ccc2S1(=O)=O | · | -7.6% | · | · | -0.7 | · | 0.0%
Cn1nc(C(=O)OCC(=O)NCCc2ccccc2)c2ccccc2c1=O | -1.4 | 3.5% | -8.7% | · | -7.0 | 18.3% | -3.7%
Cc1ccc(S(=O)(=O)CC(=O)Nc2ccccn2)cc1 | 9.3 | 5.2% | 5.4% | 4.4 | -3.1 | 15.7% | ·
Cc1nc(-c2ccc3c(c2)OCCCO3)cs1 | -4.4 | 12.5%[15.4 µM] | -1.4% | 0.7 | -5.9 | 3.9% | -0.7%
COc1ccc(CCNC(=O)C2CCN(C(=O)N(C)C)CC2)cc1OC | -2.0 | 5.4% | 10.1% | -2.4 | -0.3 | 1.5% | -2.5%
CCN(CC(=O)Nc1ccc(NC(C)=O)cc1)C(=O)C1CCC1 | 6.2 | -17.4%[15.4 µM] | 4.0% | · | -14.1 | · | ·
COc1cc2[nH]c(=O)n(CCCCCC(=O)NCCCN3CCOCC3)c(=O)c2cc1OC | -10.5 | -26.5% | ? | 0.0 | -15.5 | 10.9% | 22.4µM*
Clc1ccc(-c2n[nH]c3c2CCCC3)cc1 | -2.8 | -0.1%[15.4 µM] | ? | 0.8 | 1.0 | 13.6% | ·
Cc1nnc2sc(-c3csc4c3CCCC4)nn12 | -12.8 | -62.8%[inhibitor] | 15.0% | -0.8 | 7.3 | 1.2% | -8.9%
CCOC(=O)COc1nc2c(c(-c3ccco3)c1C#N)CCc1ccccc1-2 | 10.0 | 28.5%[15.4 µM] | -16.2% | 1.0 | -7.2 | 0.9% | ·

Bioassay records as filed in PubChem BioAssay.

Random draw from the library. Share with any hit: about 5.1%.
